SARS PLpro yeast = qHTS of Yeast-based Assay for SARS-CoV PLP. S. cerevisiae expressing SARS-CoV PLpro, growth rescue; control for the full effect not named in the record. Potency, µM (doses to about 32.9 µM), for the others: at the highest dose activity, positive = growth rescue. hit rate 0.19% among 330,000; active means well fitted rising curve with a large enough effect; inconclusive means small, poorly fitted or top-dose-only effect; inactive means no such curve, though single readings can be large or run the other way; also: 0% is about no effect; nearly all actives have a fitted effect of over 55% in size; growth read by luminescence after 48 h
NS1 inh = qHTS Assay for Inhibitors of Influenza NS1 Protein Function. Potency, µM (doses to about 46.1 µM), without a hit: at the top dose activity, positive = more growth. hit rate 0.4% among 270,000. S. cerevisiae slowed by influenza A NS1, growth recovery by OD600; active means well fitted rising curve with a large enough effect; inconclusive means small, poorly fitted or top-dose-only effect; inactive means no such curve, though single readings can be large or run the other way; also: nearly all actives have a fitted effect of over 50% in size
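S. cerevisiae expressing influenza A NS1, grown in glucose, washed, then diluted 1:100 into pH 6.0 -URA galactose medium with 23 nl compound. Growth recovery read as OD600; NS1-free strain serves as control.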
Lassa entry inh = qHTS for Inhibitors of binding or entry into cells for Lassa Virus. Lassa virus pseudotype entry inhibition, cell reporter; control for the full effect not named in the record. Potency, µM (top dose mostly 37.9 µM), without a hit: top-dose activity change, negative = inhibition, actives largely listed as inhibitors. hit rate 1.2% among 300,000; active means well fitted inhibition curve with a large enough effect; inconclusive means small, poorly fitted or top-dose-only effect, or effect the other way; inactive means flat fitted curve, though single readings scatter; tested in HEK293 cells; also: % is scaled to controls: 0 for no effect and ±100 for the full control effect; nearly all actives have a fitted effect of over 50% in size; luciferase read-out
RE007 growth inh = qHTS Assay for Inhibitors of the HIV-1 protein Vpr; Potency, µM (top dose mostly 92.2 µM), for inactives: top-dose activity change, negative = less growth; hit rate 0.21% among 360,000; S. pombe RE007 Vpr strain, BacTiter-Glo ATP luminescence, 24 h; control for the full effect not named in the record; active = well fitted falling curve with a large enough effect; inconclusive = small, poorly fitted or top-dose-only effect; inactive = no such curve, though single readings can be large or run the other way;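 also: % is scaled to controls: 0 for no effect and ±100 for the full control effect; nearly all actives have a fitted effect of over 50% in size; the assay follows cell death caused by Vpr and the record does not say whether a fall means rescue or toxicity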
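Fission yeast strain RE007, carrying one chromosomally integrated HIV-1 vpr copy, was seeded at OD 0.01 in PMG+AL medium with 23 nL pinned compound. After 24 h at 30 °C and 99% humidity, viability was read by BacTiter-Glo luminescence.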
Cruzain inh Det = qHTS Assay for Promiscuous and Specific Inhibitors of Cruzain (with detergent) | purified cruzain, Z-FR-AMC fluorescence, 0.01% Triton | hit rate 0.43% among 200,000 | Potency, µM, for the others: max response, negative = inhibition, hits mostly inhibitors | Cruzipain (Trypanosoma cruzi), P25779;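 also: plate controls were neutral wells for no effect and buffer without enzyme for full effect; nearly all actives have a fitted effect of over 40% in size; top concentration of the series not given in the record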
Target sequence (P25779 123-467 limits assumed): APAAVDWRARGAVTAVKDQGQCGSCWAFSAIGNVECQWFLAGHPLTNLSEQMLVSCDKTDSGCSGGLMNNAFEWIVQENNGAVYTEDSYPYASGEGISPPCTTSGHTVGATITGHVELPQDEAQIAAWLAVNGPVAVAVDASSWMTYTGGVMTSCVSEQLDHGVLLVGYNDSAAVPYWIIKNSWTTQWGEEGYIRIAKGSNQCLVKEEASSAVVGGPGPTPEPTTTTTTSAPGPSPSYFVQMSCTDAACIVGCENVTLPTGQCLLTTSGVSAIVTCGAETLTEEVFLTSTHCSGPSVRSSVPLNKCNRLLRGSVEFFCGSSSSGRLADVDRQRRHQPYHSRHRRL
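Z-FR-AMC hydrolysis (2 uM substrate) by cruzain (1.5 nM) monitored kinetically at ex 360/em 450 nm after 15 min room-temperature compound exposure; 0.01% Triton X-100, pH 5.5, 5 mM DTT.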
Cruzain noTriton = qHTS Assay for Promiscuous and Specific Inhibitors of Cruzain (without detergent). Cruzipain (Trypanosoma cruzi), P25779. purified cruzain, Z-FR-AMC fluorescence, no detergent. Potency, µM, for the others: max response, negative = inhibition, usual class: inhibitors. hit rate 2.3% among 200,000. AID 1476, 2009;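 also: plate controls were enzyme without inhibitor for no effect and buffer without enzyme for full effect; nearly all actives have a fitted effect of over 40% in size; top concentration of the series not given in the record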
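Detergent-free condition (0.00005% Triton X-100) in acetate buffer pH 5.5 with DTT. 1.5 nM enzyme and compound were pre-mixed 15 min, then 2 uM Z-FR-AMC substrate added; reaction progress from fluorescence change between first and third reads (60 s).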
2A StopGo = High Throughput Screening for Foot and Mouth Disease Virus Antivirals; human cells with a luciferase reporter of 2A StopGo recoding; control for the full effect not named in the record; Potency, µM (highest dose often 57.9 µM), for inactives: at the highest dose signal change, negative = less light; hit rate 1.2% among 410,000; AID 1159524, 2015; active = well fitted falling curve with a large enough effect; inconclusive = small, poorly fitted or top-dose-only effect; inactive = no such curve, though single readings can be large or run the other way; tested in HEK293T cells; also: % is scaled to controls: 0 for no effect and ±100 for the full control effect; nearly all actives have a fitted effect of over 45% in size; luciferase light after 4 h
Marburg entry inh = qHTS for inhibitors of binding or entry into cells for Marburg Virus; Marburg virus pseudotyped entry inhibition, cell reporter; control for the full effect not named in the record; about a third of the inactives were read at about 46 µM; Potency, µM (highest dose often 37.8 µM), without a hit: at the top dose activity change, negative = inhibition, most hits filed as inhibitors; hit rate 1.8% among 300,000; AID 540276, 2011; active = well fitted inhibition curve with a large enough effect; inconclusive = small, poorly fitted or top-dose-only effect, or effect the other way; inactive = flat fitted curve, though single readings scatter; tested in HEK293 cells; about a fifth of its hits are not listed in these tables; also: % is scaled to controls: 0 for no effect and ±100 for the full control effect; luciferase read-out
* = called active by the depositor; ? = inconclusive; . = not tested or not shown; [ ] = remark or other dose. Unless noted, calls follow the shape of the dose curve; as a rule, active = well fitted curve in the direction sought with a large enough effect; inconclusive = small, poorly fitted or top-dose-only effect, or another doubt; inactive = no such curve, though single readings can be large; an effect the other way counts as inactive or inconclusive. Potency is read from the fitted curve at half-maximal effect.

Start of the listing, in advance (5 entries):
SMILES	SARS PLpro yeast	NS1 inh	Lassa entry inh	RE007 growth inh	Cruzain inh Det	Cruzain noTriton	2A StopGo	Marburg entry inh
COc1ccc(C2C(C(=O)NCc3cccnc3)c3cc(OC)c(OC)cc3C(=O)N2C)cc1 (configuration not stated)	-6.9%	-8.0%	7.5%	8.9%	0.5%	-1.9%	0.0%	4.6%
CCc1ccccc1N(CC(=O)N1CCCC1)S(C)(=O)=O	0.6%	-12.6%	.	3.5%	.	.	0.4%	.
COc1cccc(OC)c1C(=O)OCCCOC(=O)c1c(OC)cccc1OC	-0.2%	-6.6%	8.1%	25.1%	.	.	-9.5%	-6.2%
CC1CN(CCCOc2ccccc2[N+](=O)[O-])CC(C)O1 (configuration not stated)	2.3%	-7.4%	-15.7%	-8.3%	6.8%	-7.9%	15.8%	?
Cc1cc(C(=O)NCCc2ccc(Cl)cc2)c(C)o1	-11.7%	-35.6%	.	-14.2%	.	.	33.5%[activator]	.

The list itself, repeating the preview:
SMILES	SARS PLpro yeast	NS1 inh	Lassa entry inh	RE007 growth inh	Cruzain inh Det	Cruzain noTriton	2A StopGo	Marburg entry inh
COc1ccc(C2C(C(=O)NCc3cccnc3)c3cc(OC)c(OC)cc3C(=O)N2C)cc1 (configuration not stated)	-6.9%	-8.0%	7.5%	8.9%	0.5%	-1.9%	0.0%	4.6%
CCc1ccccc1N(CC(=O)N1CCCC1)S(C)(=O)=O	0.6%	-12.6%	.	3.5%	.	.	0.4%	.
COc1cccc(OC)c1C(=O)OCCCOC(=O)c1c(OC)cccc1OC	-0.2%	-6.6%	8.1%	25.1%	.	.	-9.5%	-6.2%
CC1CN(CCCOc2ccccc2[N+](=O)[O-])CC(C)O1 (configuration not stated)	2.3%	-7.4%	-15.7%	-8.3%	6.8%	-7.9%	15.8%	?
Cc1cc(C(=O)NCCc2ccc(Cl)cc2)c(C)o1	-11.7%	-35.6%	.	-14.2%	.	.	33.5%[activator]	.
COc1ccc(CCN2C(=O)C=CC2=O)cc1OC	.	.	?	5.62µM*	.	.	?	?
CCN(CC(=O)Nc1ccccc1C(F)(F)F)C(=O)COc1cccc2c1OC(C)(C)C2	0.3%	.	-9.1%[46.1 µM]	21.5%	.	.	0.0%	1.0%
O=C(CCN1CCCC1)Nc1ccc(Br)cc1	-14.6%	6.9%	21.6%	-13.6%	-5.4%	-17.7%	-5.7%	-28.0%
CCOC(=O)c1cccc(NC(=O)c2ccco2)c1	-20.2%	-23.1%	-30.3%[14.3 µM]	-10.5%	2.9%	1.4%	64.2%[activator]	?
CC(O)CNc1ccc(-c2n[nH]c(=O)c3ccccc23)cc1[N+](=O)[O-] (configuration not stated)	-0.5%	4.2%	2.9%[46.1 µM]	9.3%	.	.	-11.9%	-4.4%[46.1 µM]
COc1ccccc1-c1cc(C(F)(F)F)c(C#N)c(=O)[nH]1	-0.2%	-5.1%	-7.9%[46.1 µM]	1.3%	.	.	5.6%	5.1%[46.1 µM]
Nc1cccc(-c2csc(-n3ncc(C(=O)O)c3C(F)(F)F)n2)c1	-0.8%	5.8%	.	2.3%	.	.	23.1%	.
COC(=O)c1sc2nc(CN3CCOCC3)nc(N3CCOCC3)c2c1C	1.9%	0.3%	14.9%	-9.2%	-1.9%	-6.6%	-17.8%	17.3%[46.1 µM]
Cc1cc(C)nc(SCc2nnc(SCC(=O)Nc3ccc(C)c(C)c3)o2)n1	2.5%	-18.3%	-7.2%	-9.9%	0.3%	4.0%	-15.9%	?
CCOC(=O)CSC1=C(C#N)C(=O)NC(c2ccc(OC)c(OC)c2)S1 (configuration not stated)	-1.8%	13.4%	3.1%	-12.1%	-4.3%	0.2%	28.2µM*	12.1%
COc1ccc(-c2nnc(SC)o2)c(OC)c1	1.4%	-7.6%	16.1%[46.1 µM]	3.3%	.	.	19.7%	10.7%[46.1 µM]
CCC1S/C(=N/N=C/c2ccco2)N(Cc2ccccc2)C1=O (configuration not stated)	0.6%	1.0%	?	4.1%	.	.	-13.4%	?
O=C(c1ccc(Cl)nc1)N1CCN(S(=O)(=O)c2ccc(Cl)cc2)CC1	0.8%	.	-4.0%	19.7%	.	.	-24.0%	9.1%[46.1 µM]
COc1ccc(CC(=O)NCC2COc3ccccc3O2)cc1 (configuration not stated)	-1.0%	-5.8%	.	15.2%	.	.	12.4%	.
Cc1ccccc1N1C(=O)c2cccc([N+](=O)[O-])c2C1=O	1.1%	0.3%	10.7%	10.8%	.	.	14.1%	16.9%[46.1 µM]
O=C(NCc1ccco1)c1ccc2c(c1)N(Cc1ccccc1)C(=O)CS2	-31.8%	-8.2%	?	-1.0%	-1.3%	1.0%	-14.3%	?
CCCCn1c(N)c(N(CCC(C)C)C(=O)c2ccc3c(c2)OCO3)c(=O)[nH]c1=O	-2.3%	.	-2.2%	7.6%	.	.	?	?
O=C(CNc1ccc(F)cc1)c1ccccc1	-2.2%	-1.4%	7.5%	-2.6%	.	.	49.1%[activator]	?
Cc1ccc(SCCN2CCN(C)CC2)cc1	-3.9%	20.7%	15.3%[46.1 µM]	13.6%	.	.	10.6%	-0.2%[46.1 µM]
COc1ccc2cc3cc(C(=O)N(C)C4CCCCC4)oc3nc2c1	1.1%	1.1%	.	-5.5%	.	.	-9.3%	.

Further compounds follow.
SMILES	SARS PLpro yeast	NS1 inh	Lassa entry inh	RE007 growth inh	Cruzain inh Det	Cruzain noTriton	2A StopGo	Marburg entry inh
O=C(Nc1ccccc1C(=O)N1CCCCC1)c1cccs1	1.3%	0.2%	.	12.9%	.	.	1.9%	.
CC(C)C(=O)Nc1cccc(C(=O)NCc2ccc(S(N)(=O)=O)cc2)c1	1.5%	-7.0%	-9.4%	-12.3%	2.2%	6.2%	-3.8%	11.7%
Cc1ccc(C)c(S(=O)(=O)NCC(=O)Nc2ccc3c(c2)OCO3)c1	-0.4%	7.8%	-0.6%	2.7%	.	.	33.7%[activator]	2.9%
CN(CC(=O)NCc1cccnc1)S(=O)(=O)c1cc(Cl)ccc1Cl	3.6%	.	1.4%	6.1%	.	.	-2.3%	-29.2%
O=C1C(C=NCCCN2CCCC2=O)=C(O)c2ccccc21	8.4%	-1.9%	-23.1%	26.3%	-5.4%	-8.6%	46.7%[activator]	-18.6%
CCN(CC)CCCNC(=S)N(CCO)Cc1cc2cc3c(cc2[nH]c1=O)OCO3	-1.1%	6.0%	.	-10.3%	.	.	-10.1%	.
Cc1nc(-c2ccccn2)nc(SCC(=O)c2ccc(F)cc2)c1Cl	-7.8%	-9.9%	.	3.8%	.	.	-18.5%	.
COc1ccc(CSc2ncnc3sccc23)cc1F	-3.0%	.	1.5%	-8.3%	.	.	-4.2%	-15.0%
Cn1nnnc1SCCCNCc1ccccc1OCc1ccc(F)cc1	.	.	-3.8%[46.1 µM]	.	-1.8%	0.5%	-8.4%	?
CC(C)(C)n1nnnc1C(c1cccc(C#N)c1)N1CCC(Cc2ccccc2)CC1 (configuration not stated)	1.6%	-8.3%	?	-15.2%	-2.8%	-15.1%	15.5%	?
Cc1ccc(N2CC(C(=O)Nc3nnc(SCC(=O)Nc4nc(C)cs4)s3)CC2=O)cc1 (configuration not stated)	13.7%	12.7%	1.0%	37.5%	-0.3%	-9.4%	0.6%	-43.7%
O=C(NCC(=O)N1CCN(S(=O)(=O)c2cccc(F)c2)CC1)c1ccc(Br)o1	0.0%	.	5.1%	-19.5%	.	.	-16.3%	?
CC(NC(C(=O)c1ccccc1)c1ccccc1)c1ccccc1 (configuration not stated)	.	.	?	-20.8%	.	.	0.8%	?
CCn1cc(C(=O)N(C)c2cc(C)ccc2OC)c2cc(OC)c(OC)cc2c1=O	1.5%	-1.0%	.	-1.3%	.	.	-19.9%	.
COC(=O)CCC(=O)N1CCc2cc(S(=O)(=O)N3CCc4ccccc43)ccc21	-11.9%	3.8%	12.1%	-2.1%	-1.8%	?	-17.4%	0.2%
CCOc1ccc(CC(=O)C2C(=O)CC(C)(C)CC2=O)cc1OCC	1.0%	20.4%	-3.2%	-6.1%	-1.1%	2.9%	-7.8%	10.2%
COc1cc(OC)cc(C(=O)Nc2cccc(NC(C)=O)c2)c1	-0.6%	0.6%	17.6%	3.6%	3.7%	-3.7%	.	12.3%
CCOC(=O)N1CCN(C(=O)c2cc3c(s2)-c2ccccc2OC3)CC1	-7.0%	-20.7%	.	6.3%	-25.8%	?	-7.4%	.
CCOc1ccccc1NC(=O)c1nn(-c2ccc(C)cc2)c(=O)n(C)c1=O	.	.	13.1%[46.1 µM]	.	-0.4%	-3.9%	2.8%	.
CS(=O)(=O)N(CC(=O)Nc1ccccc1C(=O)N1CCCC1)c1ccc2c(c1)OCO2	0.1%	.	20.5%	0.3%	.	.	-4.1%	-7.0%[46.1 µM]
COc1ccc(OC)c(NC(=O)c2nc(-c3ccccc3)oc2C)c1	2.4%	.	-8.4%	-3.5%	.	.	-10.2%	-18.4%
c1ccc(Nc2nc(-c3ccncc3)cs2)nc1	-12.5%	-70.0%	?	-25.7%	-6.7%	2.9%	0.0%	?
CCOc1cccc(CN2CCC(n3nccc3NC(=O)c3ccc4c(c3)OCO4)CC2)c1	1.6%	24.6%	-0.2%	-16.4%	.	.	-14.7%	-21.8%
O=C(NCCCNC(=O)c1cccnc1)c1ccc(Cl)cc1	2.3%	9.5%	10.8%	0.3%	.	.	18.8%	-3.0%[46.1 µM]
COc1cc(-c2c(C#N)c(N)nc3[nH]c(=S)[nH]c(=O)c23)ccc1O	-1.6%	6.5%	.	9.7%	.	.	-1.0%	.
Cc1ccc(S(=O)(=O)C2(C(=O)NCc3ccc4c(c3)OCO4)CC2)cc1	-3.8%	-3.3%	.	-7.9%	0.9%	0.0%	-19.1%	.
CC(O)c1c(-c2ccccc2)nn(C)c1Cl (configuration not stated)	-0.2%	.	11.5%	-10.5%	.	.	-16.2%	-23.3%[46.1 µM]

Not a hit list; overall some 4.5% were active at least once.
